AF4-AF9 inh: MLL-AF4/AF9 protein interaction inhibition; P42568; AlphaScreen, biotin-AF4 peptide binding to FLAG-AF9; inhibition, % at 10 µM; 0.47% of 350,000 active;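 active = every replicate reaching a set inhibition limit, whatever the replicate mean, cut at about 25% in these data; inconclusive = mean inhibition reaches that limit but some replicates miss it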;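 also: 0% = plate neutral control median and 100% = total signal loss; the record names both 10 and 1 µM as test concentration; the first replicate is given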
Target sequence (P42568 whole entry, looked up): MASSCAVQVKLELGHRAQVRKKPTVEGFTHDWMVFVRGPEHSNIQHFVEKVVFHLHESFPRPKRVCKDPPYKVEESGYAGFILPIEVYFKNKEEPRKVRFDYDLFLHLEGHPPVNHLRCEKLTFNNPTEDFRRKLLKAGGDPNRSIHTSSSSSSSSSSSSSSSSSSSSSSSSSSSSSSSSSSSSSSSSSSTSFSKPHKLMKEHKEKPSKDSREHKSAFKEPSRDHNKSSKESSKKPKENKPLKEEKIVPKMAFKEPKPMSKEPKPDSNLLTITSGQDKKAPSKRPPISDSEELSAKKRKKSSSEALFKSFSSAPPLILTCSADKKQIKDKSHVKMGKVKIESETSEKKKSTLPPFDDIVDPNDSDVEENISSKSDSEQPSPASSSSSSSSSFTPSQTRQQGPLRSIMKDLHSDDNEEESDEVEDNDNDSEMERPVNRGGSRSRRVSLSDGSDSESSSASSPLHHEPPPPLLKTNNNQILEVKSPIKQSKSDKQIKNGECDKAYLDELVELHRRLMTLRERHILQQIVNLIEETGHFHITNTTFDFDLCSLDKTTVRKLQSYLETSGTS
rRNA inh HTS: inhibits bacterial ribosomal RNA function over humanized ribosomes. AID 720706. GFP signal change (wild-type ribosome), % (test concentration not listed). E. coli WT GFP vs humanized-ribosome RFP mutants, fluorescence, 24 h; active compounds read low; DMSO median 0, no signal -100. 1.6% of 350,000 active;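 active = significant combined selectivity score with lowered wild-type GFP, culture density cut under 30%, mutant RFP and density less affected; inactive = any of these conditions unmet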; also: one replicate is shown; some compounds called inactive have numbers as strong as hits
E coli growth: blocks Escherichia coli growth. OD600 absorbance (test concentration not listed). AID 1053175. 0.21% of 330,000 active. OD600, 23 h; active compounds read low;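 active = OD600 absorbance below the run mean of sample wells minus 3.6 SD, in any replicate, cut at about 0.56 in these data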;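 also: stock transfer was 300 nL into about 60 µL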
FGF22 binding: binders of recombinant human FGF22 by thermal shift | AID 651658 | Q9HCT0 | SYPRO orange fluorescence; percent of sucrose octasulfate shift, DMSO zero | calls only at 9.99 µM | 1.5% of 340,000 active;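 active = melting point raised past a set limit in the mean and every replicate; inconclusive = no clear call; three in four hits are not shown here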
Target sequence (Q9HCT0 whole entry, looked up): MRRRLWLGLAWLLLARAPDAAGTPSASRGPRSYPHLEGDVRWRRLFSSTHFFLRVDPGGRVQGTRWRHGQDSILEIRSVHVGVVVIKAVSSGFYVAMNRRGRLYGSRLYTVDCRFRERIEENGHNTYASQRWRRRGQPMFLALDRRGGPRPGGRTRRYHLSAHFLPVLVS
HNF4A DNA FP: change in binding of human HNF4 alpha to DNA | P41235 | HNF4a-FITC DNA binding, fluorescence polarization, 1 h | activity change, % at 10 µM | 0.3% of 360,000 active; in the data active = activity change above about 30%, passing the limit was not always enough;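 also: controls were the assay level and a saturating level of protein; the project sought stronger binding though the title names inhibitors; some compounds called inactive have numbers as strong as hits; positive values seem to mean higher polarization but the record does not say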
ALR inh: blocks human ALR sulfhydryl oxidase activity; inhibition, % (test concentration not listed); purified ALR, DTT oxidation, H2O2 HRP-luminol luminescence; 3.8% of 290,000 active; P55789;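 active = mean and each replicate at 75% or more; inconclusive = only one of the two met; inactive = neither met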;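 also: stock transfer was 7.5 nL into about 7.5 µL; 0% = neutral wells and 100% = wells with inactivated enzyme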
Target sequence (P55789 whole entry, looked up): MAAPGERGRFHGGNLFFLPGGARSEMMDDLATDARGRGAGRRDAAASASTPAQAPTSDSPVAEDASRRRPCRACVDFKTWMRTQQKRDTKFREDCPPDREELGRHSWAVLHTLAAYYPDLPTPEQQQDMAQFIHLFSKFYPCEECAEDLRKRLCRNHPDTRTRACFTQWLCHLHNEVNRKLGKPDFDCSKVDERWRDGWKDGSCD
Vif A3G: inhibitors of Vif binding to APOBEC3G peptide, primary screen, biochemical, TR-FRET, GST-Vif 1-94, biotin-A3G peptide, dose response retest (AID 1117319). TR-FRET GST-Vif / biotin-A3G peptide binding; higher % means a stronger effect; test concentration not given here; strong numbers were not always called active. inhibition, %; hits with a dose series show IC50 in µM. 0.57% of 260,000 active;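 active = above the screen mean plus three standard deviations and confirmed in dose response; inconclusive = results disagree or hit not tested in dose response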;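 also: Vif residues 1-94 fused to GST binding biotinylated APOBEC3G peptide 110-148; 0% = full assay without inhibitor and 100% = GST in place of GST-Vif; retest series ran down from 100 µM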
rRNA inh HTS OD600: recorded beside rRNA inh HTS, whose call it bears; OD600 change, %; measured here: OD600 growth;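 optical density of the mix in the first replicate; 0 = DMSO median and -100 = no signal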
rRNA inh HTS RFP: second read-out of rRNA inh HTS, no call of its own (marks repeat the call); RFP signal change, %; measured here: RFP humanized mutant strains;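 first replicate; 0 = DMSO median and -100 = no signal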
* hit, by the source's call; & = joins results of further samples. Some of the compounds tested. The share of hits here may be higher or lower than overall.

Cc1cccc(N(C)S(=O)(=O)c2ccc3c(c2)NC(=O)CC(=O)N3)c1 was read as AF4-AF9 inh -0.8, rRNA inh HTS 21, E coli growth 0.65, FGF22 binding inactive, HNF4A DNA FP 0.6, rRNA inh HTS OD600 11 and rRNA inh HTS RFP 0.8.
For Cc1c(C(=O)NN2CCOCC2)cccc1[N+](=O)[O-] the results were AF4-AF9 inh -2.3, rRNA inh HTS 14, E coli growth 0.67, FGF22 binding inactive, HNF4A DNA FP 13, ALR inh -2, rRNA inh HTS OD600 4 and rRNA inh HTS RFP -0.9.
COCC(=O)N(C)C[C@H]1Oc2cc(-c3ccccc3)ccc2S(=O)(=O)N([C@H](C)CO)C[C@H]1C was read as AF4-AF9 inh -0.4, rRNA inh HTS -5, FGF22 binding inactive, rRNA inh HTS OD600 -9 and rRNA inh HTS RFP 0.1.
Screening CN1CCN(C2CN(Cc3ccccc3)S(=O)(=O)C2)CC1 (stereo not drawn) returned AF4-AF9 inh 0.4, rRNA inh HTS 12, FGF22 binding inactive, HNF4A DNA FP 2.7, rRNA inh HTS OD600 8 and rRNA inh HTS RFP -0.7.
`COc1ccc(-c2csc(/C(C#N)=C(\O)CSc3nccn3C)n2)cc1OC` gave HNF4A DNA FP 6.7, ALR inh 86* and Vif A3G inconclusive.
CNS(=O)(=O)c1cc(C(=O)NCc2ccco2)ccc1Cl was read as E coli growth 0.79, HNF4A DNA FP 0.8, ALR inh -6 and Vif A3G 3%.
`COC(=O)c1sccc1NC(=O)C1CC2CCC1C2` (stereo not drawn) gave E coli growth 0.68, HNF4A DNA FP 1.1, ALR inh -6 and Vif A3G 2%.
Screening N#CCCN(C(=O)CSc1n[nH]c(=O)[nH]c1=O)c1ccccc1 returned AF4-AF9 inh -1.1, rRNA inh HTS 1, E coli growth 0.72, FGF22 binding inactive, HNF4A DNA FP -1.0, ALR inh -5, Vif A3G -5%, rRNA inh HTS OD600 10 and rRNA inh HTS RFP -2.5.
For COc1ccc(NS(=O)(=O)c2ccc(NN=Cc3ccc(C(=O)O)cc3)c([N+](=O)[O-])c2)cc1 the results were AF4-AF9 inh 0.3, rRNA inh HTS 0, FGF22 binding inactive, ALR inh -8, rRNA inh HTS OD600 12 and rRNA inh HTS RFP 13.
Cc1ccc2oc(C(=O)N(Cc3ccc(N(C)C)cc3)C3CCS(=O)(=O)C3)c(C)c2c1 (stereo not drawn) was read as AF4-AF9 inh 7.3, rRNA inh HTS -11, E coli growth 0.64, FGF22 binding inactive, HNF4A DNA FP -4.7, ALR inh 0, rRNA inh HTS OD600 -10 and rRNA inh HTS RFP 1.6.
CCCNC(=O)C[C@@H]1CC[C@H]2[C@@H](COc3ccc(NC(=O)c4ccccc4)cc3C(=O)N2C)O1 was read as AF4-AF9 inh -2.9, rRNA inh HTS 3, FGF22 binding inactive, rRNA inh HTS OD600 5 and rRNA inh HTS RFP -2.3.
Screening Cc1cc(O)c(-c2n[nH]c3c2C(c2cccc(O)c2)N(Cc2cccnc2)C3=O)cc1Cl (stereo not drawn) returned E coli growth 0.67, HNF4A DNA FP 0.6, ALR inh -1 and Vif A3G 70%.
CC(NC(=S)Nc1cccc(F)c1)C(c1cccs1)N1CCOCC1 (stereo not drawn) was read as AF4-AF9 inh -24, rRNA inh HTS -10, E coli growth 0.73, FGF22 binding inactive, HNF4A DNA FP 2.5, ALR inh -2, Vif A3G -4%, rRNA inh HTS OD600 -2 and rRNA inh HTS RFP -6.4.
CCN(CC)c1ccc(NC(=O)c2c(C)noc2C)cc1 was read as AF4-AF9 inh 2.7, rRNA inh HTS 11, E coli growth 0.75, FGF22 binding inactive, HNF4A DNA FP 1.5, ALR inh 98*, Vif A3G 46%, rRNA inh HTS OD600 9 and rRNA inh HTS RFP -1.5.
Cn1nc(C(=O)NCc2ccc(F)cc2)cc1C(=O)NCc1ccc(F)cc1 was read as AF4-AF9 inh -2.0, rRNA inh HTS -8, E coli growth 0.67, FGF22 binding inactive, HNF4A DNA FP 0.9, Vif A3G -11%, rRNA inh HTS OD600 -10 and rRNA inh HTS RFP -1.5.
Screening C[C@H]1CN([C@@H](C)CO)C(=O)c2cc(NC(=O)c3ccncc3)ccc2O[C@@H]1CN(C)C(=O)Nc1ccc(F)cc1 returned AF4-AF9 inh -1.4, rRNA inh HTS 0, FGF22 binding inactive, rRNA inh HTS OD600 0 and rRNA inh HTS RFP -0.5.
COc1cccc(NC(=O)CN(C)CC(=O)Nc2ccc3c(c2)CCC3)c1 was read as AF4-AF9 inh -2.0, rRNA inh HTS -51, E coli growth 0.68, FGF22 binding inactive, HNF4A DNA FP 2.0, Vif A3G -6%, rRNA inh HTS OD600 -73 and rRNA inh HTS RFP -14.
CCCCOC(=O)c1c(C)oc2ccc(NS(=O)(=O)c3ccc4c5c(cccc35)C(=O)N4)cc12 was read as E coli growth 0.71, HNF4A DNA FP -2.1, ALR inh -14 and Vif A3G 2%&10%.
For CCCS(=O)(=O)c1nc(S(=O)(=O)c2ccc(C)cc2)c(N2CCCC(C)C2)s1 (stereo not drawn) the results were AF4-AF9 inh 2.1, rRNA inh HTS -5, E coli growth 0.74, HNF4A DNA FP -4.0, ALR inh -2, rRNA inh HTS OD600 -14 and rRNA inh HTS RFP 3.1.
CC(=O)c1ccc(S(=O)(=O)NCc2nnnn2-c2ccccc2)cc1 was read as AF4-AF9 inh 0.8, rRNA inh HTS 2, E coli growth 0.73, FGF22 binding inactive, HNF4A DNA FP -1.9, ALR inh inconclusive, Vif A3G -2%, rRNA inh HTS OD600 9 and rRNA inh HTS RFP -1.9.
`COc1ccc(Cl)cc1NC(=O)C1CCCN(c2ncnc3c2nc2n3CCCCC2)C1` (stereo not drawn) gave AF4-AF9 inh 4.5, rRNA inh HTS 10, E coli growth 0.67, FGF22 binding inactive, HNF4A DNA FP -2.5, ALR inh 2, rRNA inh HTS OD600 5 and rRNA inh HTS RFP -3.4.
COc1ccc(-c2cc(C)no2)cc1S(=O)(=O)NCC(C)c1ccccc1 (stereo not drawn) was read as AF4-AF9 inh -6.7, rRNA inh HTS -2, E coli growth 0.72, FGF22 binding inactive, HNF4A DNA FP -2.7, ALR inh -8, rRNA inh HTS OD600 -29 and rRNA inh HTS RFP 3.6.
For C[C@H](CO)N1C[C@H](C)[C@H](CN(C)C(=O)Nc2ccc(F)cc2)Oc2ccc(NC(=O)Nc3cccc4ccccc34)cc2CC1=O the results were AF4-AF9 inh 0.3, rRNA inh HTS -1, FGF22 binding inactive, rRNA inh HTS OD600 -8 and rRNA inh HTS RFP 2.0.
Screening O=C(C[C@H]1CC[C@H]2[C@@H](COC[C@@H](O)CN2Cc2cccc(Cl)c2)O1)NCc1cccc(F)c1 returned AF4-AF9 inh -1.4, rRNA inh HTS -11, FGF22 binding inactive, rRNA inh HTS OD600 -19 and rRNA inh HTS RFP 2.0.
`CC1CCc2c(sc(NC(=O)Cn3nc(C(F)(F)F)c4c3CCCCC4)c2C#N)C1` (stereo not drawn) gave E coli growth 0.7, HNF4A DNA FP -5.3, ALR inh -4 and Vif A3G -3%.
`Cc1cc([N+](=O)[O-])nn1CC(=O)Nc1nccs1` gave AF4-AF9 inh 5.4, rRNA inh HTS 18, FGF22 binding inactive, HNF4A DNA FP -0.7, Vif A3G inconclusive, rRNA inh HTS OD600 1 and rRNA inh HTS RFP 2.3.
For COC(=O)C1=C(N)Oc2cc(C)n(CCCn3ccnc3)c(=O)c2C1c1ccc(Cl)cc1 (stereo not drawn) the results were E coli growth 0.71, HNF4A DNA FP 0.3, ALR inh -10 and Vif A3G 20%.
O=C(NCCOc1nc(N2CCOCC2)nc(N2CCOCC2)n1)Nc1ccc(Cl)cc1 was read as E coli growth 0.66, HNF4A DNA FP -1.1, ALR inh -4 and Vif A3G 3%.
O=C(C[C@H]1CC[C@H]2[C@@H](COC[C@@H](O)CN2C(=O)Nc2ccc(Cl)c(Cl)c2)O1)NCc1ccc(Cl)c(Cl)c1 was read as AF4-AF9 inh 1.9, rRNA inh HTS -60, FGF22 binding active, rRNA inh HTS OD600 -77 and rRNA inh HTS RFP -20.
Screening Cc1ccc2[nH]c(=O)c(CN(Cc3ccc4c(c3)OCO4)Cc3nnnn3C3CCCC3)cc2c1 returned E coli growth 0.68, HNF4A DNA FP 1.9, ALR inh 1 and Vif A3G 13%.
Screening CC(C)(C)C(=O)Nc1cccc(OC(F)(F)C(F)Cl)c1 (stereo not drawn) returned AF4-AF9 inh -0.7, rRNA inh HTS -12, E coli growth 0.67, FGF22 binding inactive, HNF4A DNA FP -1.6, ALR inh -7, Vif A3G -5%, rRNA inh HTS OD600 -8 and rRNA inh HTS RFP -4.5.
Screening C=C1CCN([C@@H](CC(C)C)C(=O)NCc2ccc(Cl)c(Cl)c2)S(=O)(=O)c2ccccc21 returned AF4-AF9 inh -9.3, rRNA inh HTS 2, FGF22 binding inactive, HNF4A DNA FP -2.0, ALR inh -5, rRNA inh HTS OD600 -2 and rRNA inh HTS RFP 0.8.
C[C@H]1CN([C@@H](C)CO)S(=O)(=O)c2ccc(C#Cc3cccnc3)cc2O[C@@H]1CN(C)CC1CCOCC1 was read as AF4-AF9 inh 3.1, rRNA inh HTS -10, FGF22 binding inactive, rRNA inh HTS OD600 -12 and rRNA inh HTS RFP -2.0.
CC(=O)c1nn(-c2ccc(Cl)cc2)cc1C(=O)c1ccc(C)cc1 was read as AF4-AF9 inh -1.9, E coli growth 0.69, FGF22 binding inactive, HNF4A DNA FP 0.1 and ALR inh -2.
`O=C(Cc1ccccn1)NCC[C@@H]1CC[C@@H](NS(=O)(=O)c2ccc(F)cc2)[C@@H](CO)O1` gave AF4-AF9 inh -2.6, rRNA inh HTS 1, FGF22 binding inactive, rRNA inh HTS OD600 1 and rRNA inh HTS RFP -1.2.

Grouped by structure: the compounds so far with an aryl methoxy group
`COc1ccc(-c2csc(/C(C#N)=C(\O)CSc3nccn3C)n2)cc1OC` gave HNF4A DNA FP 6.7, ALR inh 86* and Vif A3G inconclusive.
For COc1ccc(NS(=O)(=O)c2ccc(NN=Cc3ccc(C(=O)O)cc3)c([N+](=O)[O-])c2)cc1 the results were AF4-AF9 inh 0.3, rRNA inh HTS 0, FGF22 binding inactive, ALR inh -8, rRNA inh HTS OD600 12 and rRNA inh HTS RFP 13.
COc1cccc(NC(=O)CN(C)CC(=O)Nc2ccc3c(c2)CCC3)c1 was read as AF4-AF9 inh -2.0, rRNA inh HTS -51, E coli growth 0.68, FGF22 binding inactive, HNF4A DNA FP 2.0, Vif A3G -6%, rRNA inh HTS OD600 -73 and rRNA inh HTS RFP -14.
`COc1ccc(Cl)cc1NC(=O)C1CCCN(c2ncnc3c2nc2n3CCCCC2)C1` (stereo not drawn) gave AF4-AF9 inh 4.5, rRNA inh HTS 10, E coli growth 0.67, FGF22 binding inactive, HNF4A DNA FP -2.5, ALR inh 2, rRNA inh HTS OD600 5 and rRNA inh HTS RFP -3.4.
COc1ccc(-c2cc(C)no2)cc1S(=O)(=O)NCC(C)c1ccccc1 (stereo not drawn) was read as AF4-AF9 inh -6.7, rRNA inh HTS -2, E coli growth 0.72, FGF22 binding inactive, HNF4A DNA FP -2.7, ALR inh -8, rRNA inh HTS OD600 -29 and rRNA inh HTS RFP 3.6.

Screening data: PubChem BioAssay, several laboratories
